Screens from PubChem.
Biofilm kill mix = clotrimazole potentiators killing C. albicans biofilm, primary screen, 4-compound mixtures; actives 0.02% (n = 120,000); inhibition, % at 7.6 µM; AID 1242, 2008; C. albicans biofilm persisters + clotrimazole, fluorescence viability; primary screen in compound mixtures of four per well;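 active means inhibition above 30.3% in the primary screen of four-compound pools, then above 30% when the compound was retested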;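 further: compounds exposed to preformed 24 h biofilms for 48 h; the number belongs to the whole pool; some results filed as inactive read as strong as hits; inactives centre near 12; 0% = biofilm with clotrimazole alone and 100% = kill control; retested singly at about 60 µM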
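System: C. albicans CAF4-2 wild-type biofilms; Medium: RPMI/MOPS medium, pH 7.0; Reagent: Clotrimazole, 50 µg/mL; Times: biofilm formation 24 h, compound exposure 48 h, 37 °C; Detection: 2-h Alamar Blue fluorescence, 535/590 nm excitation/emission; Evaluation: percent inhibition of biofilm viability.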
* = called active by the depositor. A portion of the library; the hit share may differ from the screen's.

Structure | Biofilm kill mix
O=C(NCc1ccc(F)cc1)c1c2c(nc3ccccc13)CCN(Cc1ccccc1)C2 | 7.2
CCCn1c(=O)c(C(=O)NNS(=O)(=O)c2ccc(C)cc2)c(O)c2ccccc21 | 11.1
CN(C)S(=O)(=O)c1ccc(C(=O)NCC(C)(C)N2CCOCC2)cc1 | 12.1
O=C(COC(=O)CNC(=O)c1cccc([N+](=O)[O-])c1)Nc1nc2ccccc2s1 | 9.8
Cc1c(C(=O)C(=O)NCCCn2ccnc2)c2ccccc2n1C | 8.0
O=C(NC(=S)N1CCN(c2ccc(Cl)cc2[N+](=O)[O-])CC1)c1ccco1 | 7.5
CCc1ccccc1NC(=O)CSc1nc2n[nH]c(C)c2c(=N)n1-c1cccc(OC)c1 | 14.4
N/C(=N\OS(=O)(=O)c1ccccc1)c1cccnc1 | 14.0
COc1ccc(OCC(=O)NNC(=O)c2cccc(C)c2)cc1 | 11.2
O=C(Nc1nccs1)[C@@H]1CCCN1C(=O)c1cccs1 | 8.9
Cc1cccc(NC(=S)NCc2ccc3[nH]c4c(c3c2)CCCC4)c1 | 12.5
CSc1n[nH]c(=O)n1C1CCCCC1 | 12.9
O=C(N/C(=C/C=C\c1ccccc1)C(=O)N1CCOCC1)c1ccc(Br)cc1 | -20.2
Cc1cc(NC(=O)CSc2ccc(-c3cccc([N+](=O)[O-])c3)nn2)no1 | 18.1
COc1ccc(CNCCNC(=O)c2cccs2)c(OC)c1OC | 21.0
CCOc1ccc(N2CC(C(=O)NCCc3ccc(OC)c(OC)c3)CC2=O)cc1 (centres undefined) | 13.9
Cc1c(-c2nc(-c3cccnc3)no2)cccc1[N+](=O)[O-] | -0.3
CN(c1ccccc1)S(=O)(=O)c1cc(Cl)ccc1Cl | 17.8
CCN(CC)CCNC(=S)Nc1ccc(F)cc1 | 18.3
Cc1nc(-c2ccccc2)nc2sc(C(=O)c3ccc(F)cc3)c(N)c12 | 16.7
CCOC(=O)c1c(-c2ccccc2)csc1NC(=O)CSc1nc(N)cc(N)n1 | 11.8
CCOC(=O)Cc1csc(NC(=O)C(C)Oc2ccc3c(C)cc(=O)oc3c2)n1 (centres undefined) | 13.8
CC(C)NC(=S)N1CCN(C(c2ccccc2)c2ccccc2)CC1 | 20.7
CCN(CC)S(=O)(=O)c1ccc(NC(=O)Cc2cccs2)cc1 | 19.9
CC1=N/C(=C\c2ccc(OC(C)C)cc2)C(=O)N1c1ccc(C(=O)O)cc1 | 20.1
O=[N+]([O-])c1nn(-c2ccc(Cl)cc2)n(O)c1=NCc1ccccc1 | 15.1
N#Cc1ccc(CSc2nnc(NC(=O)C3CC(=O)N(c4ccc5c(c4)OCCO5)C3)s2)cc1 (centres undefined) | 17.6
COc1cccc(CNC(=S)NC2CC2)c1 | 3.8
CCOC(=O)C(=O)Nc1cc(Cl)ccc1C | 12.5
CC(=O)CC(=O)Nc1ccc(Cl)cn1 | 21.3
CCn1ccnc1CNCc1ccc(OCC(O)CN(C)Cc2ccccc2)cc1 (centres undefined) | 5.6
Cc1cc(CN2CCCC(CNC(=O)c3ccc(F)cc3)C2)cc(C)c1O (centres undefined) | 8.5
Cc1cc(=O)c2ccc(Cl)cc2[nH]1 | 13.6
Cn1cccc1/C=N/N1CCN(Cc2ccccc2)CC1 | 12.6
CCOC(=O)c1ccc(CNCc2ccc(C)cc2)cc1 | 15.3
O=C(CSc1nc2ccccc2s1)Nc1cc(C(=O)O)cc(C(=O)O)c1 | 19.9
Cc1ccccc1NC(=O)Cc1nc(CCl)cs1 | 14.6
CCN1C/C(=N\S(=O)(=O)/N=C2\CN(CC)C(=O)N2CC)N(CC)C1=O | 15.6
O=C(NCCO)c1cccc2c1C(=O)c1ccccc1-2 | 4.7
C=CC(COCc1ccccc1)N(Cc1ccc(OC)cc1)S(=O)(=O)c1ccccc1Br (centres undefined) | 23.0
Cc1ccc(OCC(=O)N/N=C/c2ccncc2)cc1C | -3.1
COc1cccc(NC(=O)CN(C)C(C)C(=O)Nc2cc([N+](=O)[O-])ccc2Cl)c1 (centres undefined) | 11.1
CC(NC(=S)NCCN1CCOCC1)C12CC3CC(CC(C3)C1)C2 (centres undefined) | 7.1
COc1ccc(/C=N/NC(=O)Cn2nnc3ccccc32)cc1OC | 10.4
Cc1ccccc1NC(=O)Cn1nnc2sc3c(c2c1=O)CC(C)(C)OC3 | 8.5
COc1ccc(/C=N/NC(=O)CN2CCSCC2)c(OC)c1 | 19.0
COc1ccc(N2CC(NC(=O)NCCC(C)C)CC2=O)cc1 (centres undefined) | 22.5
CC1(C)CC2=C(CO1)C(=S)NC(c1ccccc1)N2CC1CCCO1 (centres undefined) | 16.1
Cc1ccc(NC(=O)CCC(=O)NNC(=O)/C=C/C(=O)O)c(C)c1 | -2.0
CCCC(NC(=O)c1c(C)noc1C)C12CC3CC(CC(C3)C1)C2 (centres undefined) | 13.6
CC(C)CN(C(=O)CCc1ccccc1)c1c(N)n(CC(C)C)c(=O)[nH]c1=O | 9.0
O=C(O)c1ccc(N=NN2CCCCCC2)cc1 | 10.3
COc1ccc(CC(=O)NNC(=O)CCc2ccccc2)cc1 | 14.1
NCCNc1ccc([N+](=O)[O-])c(Sc2nc3ccccc3[nH]2)c1 | 13.2
O=C(NCC(=O)N(c1cccnc1)C(C(=O)NC1CCCC1)c1ccccc1)c1ccco1 (centres undefined) | 21.1
O=C1CSC(c2ccccc2F)N1 (centres undefined) | 5.1
Cc1nc2ccccn2c1C(=O)NC1CCCc2ccccc21 (centres undefined) | 11.5
CCc1cc(CNC(=O)CCc2nnc(CCCc3ccccc3)o2)on1 | 25.2
N#Cc1cccnc1Oc1ccccc1 | 20.9
N#C/C(=C\c1ccc(-c2ccc([N+](=O)[O-])cc2Br)o1)C(=O)N1CCN(c2ccccc2)CC1 | 0.2

3 structures out of the list, ordered by SMILES length, ascending.
Structure | Biofilm kill mix
O=C(NCCO)c1cccc2c1C(=O)c1ccccc1-2 | 4.7
CCOc1ccc(N2CC(C(=O)NCCc3ccc(OC)c(OC)c3)CC2=O)cc1 (centres undefined) | 13.9
CC(C)CN(C(=O)CCc1ccccc1)c1c(N)n(CC(C)C)c(=O)[nH]c1=O | 9.0

(list continues)
Structure | Biofilm kill mix
C/C(=N\NC(=O)c1cccnc1)c1ccc(-n2ccnc2)cc1 | 1.6
COc1ccc(OCC(=O)N/N=C/C2CC=CCC2)cc1 (centres undefined) | 11.0
Cc1nc(/C(=N/O)C(N)=O)cs1 | 7.1
Cc1cccc2sc(NC(=O)C3=NN(c4ccccc4)C(=O)CC3)nc12 | 10.2
Cc1ccc(CSc2ccc(C(=O)N3CCOCC3)cc2[N+](=O)[O-])cc1 | 16.5
CCOC(=O)c1cc(C#N)c(SC)nc1C | -2.8
COc1ccc(/C=N/NC(=O)c2cccnc2)c(C(=O)O)c1OC | 13.3
c1ccc(Cn2nnc3c(NCC4CCCO4)nc(C4CC4)nc32)cc1 (centres undefined) | 8.7
Cc1nnc(SCC(=O)N2c3ccccc3CC2C)[nH]c1=O (centres undefined) | 9.2
Cc1ccc(SCCc2cc[n+](CC(=O)c3ccccc3)cc2)cc1 | 18.8
C/C=C(\C)C(=O)OC1c2c(ccc3ccc(=O)oc23)OC(C)(C)C1OC(C)=O (centres undefined) | 11.3
COc1ccc(C(CC(=O)O)n2cnnn2)cc1 (centres undefined) | 18.0
CN(Cc1ccccc1)C(=O)COC(=O)c1ccc(Cl)cc1N | 6.6
COc1ccc(Nc2nc(C(=O)N3CCc4ccccc4C3)cs2)cc1 | 17.3
COc1ccc(-c2cc(=O)[nH]c(=S)[nH]2)cc1 | 6.9
C/C(=N\NC(=O)c1cccnc1)c1ccc(C)c([N+](=O)[O-])c1 | -7.0
CC(=O)Nc1ccc(C(=O)/C=C/c2ccco2)cc1 | 12.8
COc1ccc(Cl)cc1NC(=O)C1CSC(c2ccncc2)=N1 (centres undefined) | 16.9
COc1c(CC=C(C)C)cc(C2CC(=O)c3c(O)cc(O)cc3O2)cc1CC=C(C)C (centres undefined) | 17.6
COc1ccc(C2CC(=O)Oc3c(C(CCN4CCCCC4)c4ccc(N(C)C)cc4)c(OC)cc(OC)c32)cc1 (centres undefined) | 7.1
COc1cccc(CC2(CO)CCN(Cc3cn(C)nc3C)CC2)c1 | 15.6
O=C(COc1ccc(Cl)cc1)NC1=NN(c2ccccc2)C(=O)C1 | 14.0
COc1cc(C2OC(=O)c3ccccc3S2)cc(OC)c1OC (centres undefined) | 12.4
N#Cc1ncc(-c2ccc3c(c2)OCCOCCOCCOCCOCCO3)nc1C#N | 0.8
CC(C)CN1CC(C(=O)O)CC1=O (centres undefined) | 21.2
CCC(CC)C(=O)Nc1cccc(C(=O)NCCc2ccccc2)c1 | 11.3
Cc1ccnc(NS(=O)(=O)c2ccc(NC(=O)c3cncc(Br)c3)cc2)n1 | 20.8
Cc1cccc(NC(=O)CSc2ccc(-c3cccs3)nn2)c1C | 3.9
O=C(O)C1CSC(c2ccco2)N1 (centres undefined) | -7.2
CSc1ncccc1C(=O)NCC12CC3CC(CC(C3)C1)C2 | -6.7
CC1(C)CC(=O)C2=C(C1)N(c1ncn[nH]1)C(N)=C(C#N)C2c1ccccc1 (centres undefined) | 22.1
O=C(O)c1ccc(Oc2ccc(C(F)(F)F)cn2)cc1 | -10.5
COC(=O)c1ccc(S(=O)(=O)N(C2CCCCC2)C2CCCCC2)n1C | 2.9
COC(=O)c1nn(-c2ccccc2)c(Cl)c1/C=N/O | 17.2
COC(=O)c1ccc2nc(Nc3nc4c(F)cc(F)cc4s3)sc2c1 | 17.2
CCCCSc1cc(=O)[nH]c(N)n1 | 18.4
O=C1CCCCC1c1cccc2ccccc12 (centres undefined) | -2.9
O=c1[nH]c2ccc(S(=O)(=O)NCCO)cc2[nH]1 | 27.5
CCc1nnc(NC(=O)C2(C)COC(c3ccc(OC)cc3)OC2)s1 (centres undefined) | 7.7
Cc1ccnc(NC(=O)Nc2ccc3c(c2)N(C)C(=O)CS3)c1 | 12.8
Cc1cc(C)c(C#N)c(SCc2ccccc2)n1 | 7.7
CC(C)C(=O)OC/C(O)=C(\C#N)c1nc2ccccc2[nH]1 | 1.0
Cc1cccc(-n2cc(-c3ccccc3)c3c(NN4CCOCC4)ncnc32)c1 | 12.0
CC(=O)N1CCCN(Cc2cn(-c3ccc(C)cc3)nc2-c2ccc(F)cc2)CC1 | 13.2
N#Cc1c(-c2ccccc2Cl)cc(-c2ccccc2)[nH]c1=S | 8.0
CC(C)CCNC(=O)Cc1ccc(Nc2nc(=S)[nH]c3ccccc23)cc1 | 6.6
CCCC(C)NC(C)C(=O)NC1CCCC1 (centres undefined) | 24.7
O=C(COC(=O)CNS(=O)(=O)/C=C/c1ccccc1)Nc1cccc2ccccc12 | 15.8
Cc1nc2ccc([N+](=O)[O-])cc2nc1C | 14.1
Cc1cc(/C=C2/SC(=O)NC2=O)c(C)n1-c1ccc(N2CCOCC2)cc1 | 11.2
O=C(N/N=C/c1cc(Cl)cc([N+](=O)[O-])c1O)C1CC1 | 22.1
CCO[C@@H]1OC(C(=O)O)=C[C@H](C)[C@H]1CCCO | 17.0
O=C(O)/C=C/c1nc(-c2ccccc2)n2ccccc12 | 17.2
CN=C1S/C(=C\c2cn(CC(=O)OC)c3ccccc23)C(=O)N1C | 3.7
CCOC(=O)C1CCN(C(=O)COC(=O)COc2ccc(Cl)cc2)CC1 | -11.7
O=c1ccc(NS(=O)(=O)c2ccccc2Cl)cn1Cc1ccc(Cl)c(Cl)c1 | 20.1
CC(C)Cn1nc(C(=O)OCC(=O)NCC(F)(F)F)c2ccccc2c1=O | 10.9
CCOc1c(Br)cc(/C=C2\C(=O)N(CCC#N)N=C2C)cc1OC | 9.3
Cc1ccc2nc(NCCCO)[nH]c2c1 | 8.6
CCCCn1c(N)c(N(CCOC)C(=O)COc2ccc(Cl)cc2)c(=O)[nH]c1=O | 9.3

More results follow.
Structure | Biofilm kill mix
COCCN(CCOC)S(=O)(=O)c1ccc(C(=O)Nc2nc(-c3ccccc3)c(C(=O)c3ccccc3)s2)cc1 | 9.7
Cc1ccccc1NC(=O)CCC(=O)OCC(=O)c1cccc([N+](=O)[O-])c1 | 7.8
Cc1cccc(CSCCNC(=O)Nc2ccccc2)c1 | 8.0
COC(=O)C(CC(C)C)NC(=O)C(Cc1ccccc1)NC(=O)C1CCCN1C(=O)OC(C)(C)C (centres undefined) | -0.7
Cc1oc(-c2cccc(Cl)c2)nc1CN(C)C1CCOC1 (centres undefined) | 15.7
Oc1ccc(Cl)cc1C1=Nc2ccccc2N=C(c2ccco2)C1 | 6.2
COc1cc(C2NC(=O)CS2)cc(OC)c1OC (centres undefined) | 12.2
Cc1cc(=O)n2[nH]c(-c3ccc(C(C)(C)C)cc3)cc2n1 | 19.3
Cc1ccc(S(=O)(=O)N(CC(=O)NCCSCc2ccco2)c2ccc(F)cc2)cc1 | 0.7
CN(c1ccccc1)P(=O)(N(C)c1ccccc1)N(C)c1ccccc1 | 10.6
CC1(C)C2CCC1(CS(=O)(=O)N1CCC(C(=O)O)CC1)C(=O)C2 (centres undefined) | 21.2
O=C(Nc1nnc(-c2ccco2)o1)c1cccc(Cl)c1 | 25.2
O=C(CCCOc1ccc(Cl)cc1Cl)Nc1ccccn1 | 17.1
CC1CCN(C(=S)Nc2cccc(S(=O)(=O)N(C)C)c2)CC1 | 11.6
Cc1ccc(NC(=O)CCC(=O)NNC(=O)COc2ccccc2)c(C)c1 | 19.1
COc1cccc(/C=C/C(=O)Nc2ccc3nc4n(c(=O)c3c2)CCCC4)c1OC | 17.1
Cc1nnc(N/N=C/c2ccc(O)c([N+](=O)[O-])c2)[nH]c1=O | 18.6
CCOC(=O)CN=C/C(C(=O)Nc1nccs1)=C(/C)O | 15.1
